Source: PubChem
Sfp inh – Sfp phosphopantetheinyl transferase inhibition; Q9F4F7; Biochemical Sfp PPTase activity, qHTS; Potency, µM, for inactives: max response, negative = inhibition, actives largely listed as inhibitors; 310,000 tested, 3.5% active; AID 1490; active = well fitted inhibition curve with a large enough effect; inconclusive = small, poorly fitted or top-dose-only effect, or another doubt; inactive = no such curve, though single readings can be large or run the other way;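 note: the enzyme is Sfp with the accession as filed and its product quenches rhodamine fluorescence; potency is the fitted concentration of half-maximal effect; 0% = enzyme reaction without inhibitor and -100% = no enzyme wells; top concentration of the series not given in the record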
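With Hepes-Na pH 7.6 buffer containing 10 mM MgCl2, Sfp (15 nM) modified BHQ-2-YbbR (12.5 uM) using rhodamine-CoA (5 uM). Two reads 30 minutes apart at 525/598 nm yielded each well's rate.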
PINK1 modulator – modulators of PINK1 expression; PINK1 immunofluorescence, high-content cytometry, 24 h; Potency, µM (series often up to 76.6 µM), inactives show top-dose activation (PINK1 increase), actives largely listed as activators; 410,000 tested, 0.2% active; AID 624263; active = well fitted activation curve with a large enough effect; inconclusive = small, poorly fitted or top-dose-only effect; inactive = flat fitted curve, though single readings scatter; cell line not stated here;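 note: potency is the fitted concentration of half-maximal effect; % of control where 0% means no effect; nearly all actives have a fitted effect of over 65% in size; a mitochondrial uncoupler was the plate control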
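Measures PINK1 amount and localization on or inside mitochondria by immunofluorescence. Stable cells get compounds at 5 concentrations for 24 hours before fixation and staining; CCCP controls included.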
TRPML1 ag – activates the human TRPML1 channel. Q9GZU1. TRPML1-expressing cells, Ca2+ dye fluorescence, FDSS; host cell line not named in the record; reference of the full effect not given here. activation, % (concentration not given with the values). 410,000 tested, 0.12% active; in the data active = activation above about 50%; inconclusive = about 30% to 50%; inactive = below about 30%; note: 0% is about no effect; the text of the record puts the active cut at 80%
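Agonist activity was taken from a 110 s kinetic Ca2+ dye read on the FDSS after pinning compounds onto TRPML1-DL cells. The cells were seeded at 1,500/well with Tet inducer, incubated about 16 h, then dye-loaded at room temperature.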
TRPML1 inh – inhibitors of human TRPML1 channel. 390,000 tested, 0.02% active. activity change, negative = inhibition, % (no concentration beside the values). Q9GZU1. TRPML1-inducible cells, Ca2+ dye fluorescence, FDSS; hits give low values; inhibition of EC80 agonist-evoked calcium signal; in the data active means activity change below about -50%; inconclusive means about -30% to -50%; inactive means above about -30%;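 note: stimulus is agonist 54-4 at its EC80 concentration; % is set by controls: 0 for no effect and ±100 for the full control effect; compound concentration not given in the record; the text of the record puts the active cut at -80%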
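Tet-induced TRPML1-DL cells loaded with Ca8 no-wash calcium dye were read kinetically on FDSS. Compound addition was followed by EC80 agonist 54-4 (4 uM final); inhibition was read over 110 s.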
TRPV1 PAM – potentiators of human vanilloid receptor 1 (TRPV1). Q8NER1. TRPV1-expressing cells, Fluo-8 calcium influx, capsaicin EC20 potentiation; host cell line not named in the record; control for the full effect not named in the record. potentiation, % at 8.33 µM. 320,000 tested, 0.02% active. AID 540277; active means potentiation above 80%; inconclusive means 30% to 80%; inactive means below 30%; note: 0% is about no effect
Target sequence (Q8NER1 whole entry, looked up): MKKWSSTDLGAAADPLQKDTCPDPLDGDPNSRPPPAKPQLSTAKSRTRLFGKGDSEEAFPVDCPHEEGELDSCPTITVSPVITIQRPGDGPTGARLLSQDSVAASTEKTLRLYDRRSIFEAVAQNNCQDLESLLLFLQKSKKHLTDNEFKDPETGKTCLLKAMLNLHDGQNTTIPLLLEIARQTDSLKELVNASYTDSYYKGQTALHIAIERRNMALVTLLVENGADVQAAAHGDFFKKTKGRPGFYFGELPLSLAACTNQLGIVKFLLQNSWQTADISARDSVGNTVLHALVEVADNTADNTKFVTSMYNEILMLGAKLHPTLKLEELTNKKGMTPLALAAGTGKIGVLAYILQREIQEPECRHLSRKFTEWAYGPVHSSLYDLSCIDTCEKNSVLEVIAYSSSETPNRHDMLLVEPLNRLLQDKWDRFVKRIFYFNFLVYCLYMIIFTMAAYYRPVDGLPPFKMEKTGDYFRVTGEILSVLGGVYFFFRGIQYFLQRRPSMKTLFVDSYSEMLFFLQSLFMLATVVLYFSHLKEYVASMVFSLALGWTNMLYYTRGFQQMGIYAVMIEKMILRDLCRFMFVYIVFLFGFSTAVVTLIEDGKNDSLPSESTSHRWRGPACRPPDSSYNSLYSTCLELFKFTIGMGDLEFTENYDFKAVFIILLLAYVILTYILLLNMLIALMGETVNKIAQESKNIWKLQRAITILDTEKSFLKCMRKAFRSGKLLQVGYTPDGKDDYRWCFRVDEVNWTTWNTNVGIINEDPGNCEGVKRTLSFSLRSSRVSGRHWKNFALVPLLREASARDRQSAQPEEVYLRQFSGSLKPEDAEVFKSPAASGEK
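TRPV1-expressing cells were cultured overnight at 35.5C and loaded with Fluo-8 calcium dye for 40 to 90 min at room temperature. After a 10 s baseline, compound was added and calcium influx was read kinetically for 3 min (ex 480/em 520 nm).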
ClpP mod – qHTS Assay for Activators of ClpP | 340,000 tested, 1.9% active | Potency, µM (doses to about 57.5 µM), without a hit: at the highest dose activity change, negative = active | ATP-dependent Clp protease proteolytic subunit (Bacillus subtilis (strain 168)), P80244 | purified B. subtilis ClpP, FRET peptide cleavage, 20 min; active = well fitted falling curve with a large enough effect; inconclusive = small, poorly fitted or top-dose-only effect; inactive = no such curve, though single readings can be large or run the other way; note: potency is the fitted concentration of half-maximal effect; the source files actives as falling curves though it sought activators and does not explain the sign; nearly all actives have a fitted effect of over 65% in size; many hits overshoot -100%
Target sequence (P80244 whole entry, looked up): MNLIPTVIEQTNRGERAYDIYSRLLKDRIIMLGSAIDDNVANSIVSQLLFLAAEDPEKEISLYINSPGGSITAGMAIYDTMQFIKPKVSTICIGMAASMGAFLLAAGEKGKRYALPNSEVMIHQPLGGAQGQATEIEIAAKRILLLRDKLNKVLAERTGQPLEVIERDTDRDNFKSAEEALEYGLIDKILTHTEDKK
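Buffer: 100 mM Tris/HCl pH8, 100 mM KCl, 0.05% low protease BSA, 2.5% glycerol, 0.01% Tween-20. ClpP 10 microg/mL final; 20 min RT; delta FRET normalized to ADEP and DMSO controls.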
Menin MLL FP FL – menin-MLL binding inhibition, fluorescein peptide; Fluorescence polarization, fluorescein-MLL peptide displacement from menin; FP activity change, % at 61.4 µM; 290,000 tested, under 10 active; inconclusive = falling polarisation curve, or a change in total fluorescence; inactive = total fluorescence flat and polarisation flat or rising; no compound was filed as active; the % refers to the polarisation; negative = inhibition;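 note: % of control where 0% means no effect; inhibitors lower the polarisation; unlabelled MLL peptide was the positive control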
* marks the source's active call; other numbers are inactive results; u = inconclusive; x = no result given; & = joins results of further samples; ! = a repeat was not active; [ ] = remark or other dose. Not all compounds are listed, so the mix of outcomes need not match the whole.

The first 2 entries, to show the layout:
#1 Cc1nc2c3ccccc3nc(NNC(=O)CCC(=O)N3CCN(c4ccccc4)CC3)n2n1
#2 O=C(O)COC(=O)Cc1ccccc1Nc1c(Cl)cccc1Cl

entry no. | 1 | 2
Sfp inh | 13% | 15%&14%
PINK1 modulator | 1.0%&-1.5% | -0.5%
TRPML1 ag | -0.3&1.1 | -0.2
TRPML1 inh | -2&-3 | 6
TRPV1 PAM | u | 14
ClpP mod | -0.5%&-2.7% | 1.8%
Menin MLL FP FL | x | -0.6

All compounds of this part, repeating the preview:
#1 Cc1nc2c3ccccc3nc(NNC(=O)CCC(=O)N3CCN(c4ccccc4)CC3)n2n1
#2 O=C(O)COC(=O)Cc1ccccc1Nc1c(Cl)cccc1Cl
#3 CC1(C)O[C@H]2CC(=O)OCC23[C@H]2CC[C@@]4(C)[C@H](c5ccoc5)OC(=O)[C@H]5O[C@]54[C@]2(C)C(=O)C[C@@H]13 (stereo not given in full)
#4 CCOC(=O)C1(CCOc2ccccc2)CCN(Cc2ccc(O)c(Cl)c2)CC1
#5 Cc1nnc(NS(=O)(=O)c2ccc(N)cc2)s1
#6 CNC(=O)c1ccc(CSc2nc3ccncc3n2Cc2ccc(C)cc2)cc1
#7 Nc1nccs1
#8 CCC[C@H](N[C@@H](C)C(=O)N1[C@H](C(=O)O)C[C@@H]2CCCC[C@@H]21)C(=O)OCC

entry no. | 1 | 2 | 3 | 4 | 5 | 6 | 7 | 8
Sfp inh | 13% | 15%&14% | x | 10% | 18%&10%&0%&0% | x | -7% | x
PINK1 modulator | 1.0%&-1.5% | -0.5% | 1.4% | 3.7% | 0.7% | -0.1% | -0.2%[153 µM] | 0.2%
TRPML1 ag | -0.3&1.1 | -0.2 | -0.4 | x | -0.6 | 0.0 | 0.1 | -0.1
TRPML1 inh | -2&-3 | 6 | 4 | x | -1 | 9 | x | 26
TRPV1 PAM | u | 14 | -3 | -2 | -3 | x | x | -3
ClpP mod | -0.5%&-2.7% | 1.8% | -0.9% | -1.0% | -1.2% | -21% | -0.1%[115 µM] | 1.0%
Menin MLL FP FL | x | -0.6 | x | 2.2 | -1.5 | x | -0.7 | x

#9 CC(C)=CC(=O)O[C@@H]1Cc2cc3ccc(=O)oc3cc2OC1(C)C
#10 O=C1NCC2(CCN(CCc3ccccc3)CC2)O1
#11 CCCOc1ccccc1-c1nc2n[nH]nc2c(=O)[nH]1
#12 CC[C@]1(O)CC2CN(CCc3c([nH]c4ccccc34)[C@@](C(=O)OC)(c3cc4c(cc3OC)N(C)[C@H]3[C@@](O)(C(=O)OC)[C@H](OC(C)=O)[C@]5(CC)C=CCN6CC[C@]43[C@@H]65)C2)C1 (stereo not given in full)
#13 NS(=O)(=O)c1cc2c(cc1C(F)(F)F)NC(Cc1ccccc1)NS2(=O)=O (stereo not given)
#14 Nc1cc(-c2ccncc2)c[nH]c1=O
#15 O=C(O)[C@@H]1[C@H]2C[C@H]3c4[nH]c5ccccc5c4CCN3C[C@@H]2CC[C@@H]1O
#16 c1ccc2c(CC3=NCCN3)cccc2c1

entry no. | 9 | 10 | 11 | 12 | 13 | 14 | 15 | 16
Sfp inh | x | 14%&-1%&22% | 11%&0%&16%&-6%&15% | -27% | 24%&16% | 6.3µM*! | x | -16%&9%&2%&9%
PINK1 modulator | 2.9% | 0.2% | 0.2% | 5.6% | 0.5% | 0.3% | 0.7% | -0.6%
TRPML1 ag | -0.9 | -0.2 | -0.2 | -0.3 | 1.0 | 0.8 | -0.1 | -0.3
TRPML1 inh | -11 | 10 | 9 | x | 14 | -9 | 22 | 11
TRPV1 PAM | -11 | -22 | x | x | -4 | -4 | -3 | 5
ClpP mod | 4.5% | -0.7% | -0.9% | 2.1% | 1.3% | -0.2% | -0.2% | 3.0%
Menin MLL FP FL | x | 3.5 | -4.9 | u | -2.8&-0.7 | u | x | -0.6

#17 C=C1c2cccc(O)c2C(=O)C2C(=O)[C@]3(O)C(=O)C(C(N)=O)C(=O)[C@@H](N(C)C)[C@@H]3[C@@H](O)[C@H]12 (stereo not given in full)
#18 O=c1cc[nH]c(=O)[nH]1
#19 COc1cncc(C#Cc2ccccn2)c1
#20 Nc1ccc(C(=O)Nc2ccccc2N)cc1
#21 C/C=C/C=N\NC(=O)c1ccncc1
#22 Cc1onc(-c2ccccc2Cl)c1C(=O)N[C@@H]1C(=O)N2[C@@H]1SC(C)(C)[C@@H]2C(=O)O
#23 Cc1oc(-c2cccc(Cl)c2)nc1Cn1c(SCc2ccccc2F)nc2ccncc21
#24 Cc1nn(CC(=O)NCCc2ccccc2)c(=O)c2c1sc1ccccc12

entry no. | 17 | 18 | 19 | 20 | 21 | 22 | 23 | 24
Sfp inh | x | 21% | x | 14%&-6% | -5% | x | x | x
PINK1 modulator | 3.3% | 2.5% | -1.3% | 2.8% | 3.1% | 1.0%&0.4% | -0.2% | 3.3%
TRPML1 ag | 0.1 | -0.1 | -0.2 | 0.2 | 0.0 | 0.5&0.2 | -0.8 | 1.4
TRPML1 inh | -2 | 13 | x | -10 | -6 | 7&-14 | 26 | 2
TRPV1 PAM | x | -8 | x | u | 8 | -7 | x | x
ClpP mod | -0.5% | -1.0% | u | -8.3% | -0.5% | -1.9%&-1.1% | 8.4% | -19%
Menin MLL FP FL | x | 0.6 | x | 4.9&1.7 | -6.1 | x | x | x

#25 CC(=O)[C@H]1CC[C@H]2[C@@H]3C[C@H](C)C4=CC(=O)CC[C@]4(C)[C@H]3[C@@H](O)C[C@]12C
#26 CCOc1ccc(S(=O)(=O)N2CCCCCC2)c2ccccc12
#27 COc1ccc(CN(CCN(C)C)c2ccccn2)cc1
#28 O=C(Cn1ccnc1[N+](=O)[O-])NCCO
#29 CC(=O)N1C[C@H](O)C[C@H]1C(=O)O
#30 COc1c(O)cc2c(c1O)C1OC(CO)C(O)C(O)C1OC2=O (stereo not given)
#31 COc1ccc(NC(=O)Cn2ccn(-c3ccc(C)c(C)c3)c(=O)c2=O)cc1Cl
#32 CC(C)Cn1cnc2c1c(=O)n(C)c(=O)n2C

entry no. | 25 | 26 | 27 | 28 | 29 | 30 | 31 | 32
Sfp inh | 8% | 1% | 13%&10%&37%&28%&12% | 29%&5% | x | x | x | 4%
PINK1 modulator | 0.8% | 2.4%[38.3 µM] | -0.4%&1.1%&1.1% | 0.5% | 0.8% | -0.9% | 0.0% | 0.9%
TRPML1 ag | 0.8 | 3.0 | -0.7&-0.2&-0.4 | x | 0.1 | -0.1 | 0.2 | 0.2
TRPML1 inh | 7 | 51 | 5&8&-9 | x | 2 | 7 | 9 | 0
TRPV1 PAM | 7 | -7 | -2&-3 | x | 19 | -2 | x | 26
ClpP mod | -0.5% | -7.1% | -2.2%&-24%&-3.9% | x | -2.0% | 1.6% | -16% | -2.7%
Menin MLL FP FL | 3.0 | 0.4 | u | 3.6 | x | x | x | -2.9

#33 Cc1nc2c3ccccc3nc(NNC(=O)CCC(=O)N3CCN(c4cc(Cl)ccc4C)CC3)n2n1
#34 CC1=NN(c2ccccc2)C(=O)C1
#35 CCCCC1CCC(CCCC(C)CCC(=O)O)CC1 (stereo not given)
#36 CC1(C)OC2CC3C4CC(F)C5=CC(=O)C=CC5(C)C4(F)C(O)CC3(C)C2(C(=O)CO)O1 (stereo not given)
#37 CN(C)C/C=C(/c1ccc(Br)cc1)c1cccnc1
#38 CN1CCC(=C2c3ccccc3CCc3sccc32)CC1
#39 C=CC(C)(O)CC/C=C(\C)CCC=C(C)C (stereo not given)
#40 CN(C)CCCN1c2ccccc2Sc2ccccc21

entry no. | 33 | 34 | 35 | 36 | 37 | 38 | 39 | 40
Sfp inh | x | -7%&0%&-3%&14%&12% | x | 8% | 6% | 15%&-10%&5%&10% | 11% | -16%&-8%&20%
PINK1 modulator | -2.5% | 1.2%&1.4% | 0.8% | 8.1% | 0.0% | 0.3% | 2.8% | 1.2%&1.9%
TRPML1 ag | 1.1 | -0.5 | 0.0 | 0.2 | 1.6 | 0.0 | x | 0.1&0.4
TRPML1 inh | 0 | 11 | 10 | 8 | 20 | -6 | x | -1
TRPV1 PAM | x | 5 | x | 11 | x | 0 | x | -5
ClpP mod | 3.0% | 0.1% | -1.5% | x | -3.9% | 2.2% | x | -3.5%&-5.6%
Menin MLL FP FL | x | u | x | -12 | 2.4 | 2.9 | -0.8 | -1.2

#41 COc1ccc(C(=O)Nc2nc3ccccc3n2CCOc2ccc(Cl)cc2)cc1
#42 CC(=O)O[C@]1(C(C)=O)CC[C@H]2[C@@H]3C=C(Cl)C4=CC(=O)[C@@H]5C[C@@H]5[C@]4(C)[C@H]3CC[C@@]21C
#43 N=C(N=C(N)N)N1CCOCC1
#44 Cc1coc2c1C(=O)C(=O)c1c-2ccc2c1CCCC2(C)C
#45 CCCCCCCCO
#46 Cc1c(C(=O)O)c(O)cc2c1C(=O)c1c(O)c([C@H]3O[C@H](CO)[C@@H](O)[C@H](O)[C@H]3O)c(O)c(O)c1C2=O
#47 COc1cccc(CCc2ccccc2OCC(CN(C)C)OC(=O)CCC(=O)O)c1 (stereo not given)
#48 O=C1N(c2ccccc2)c2ccccc2C1(Cc1ccncc1)Cc1ccncc1
#49 COc1ccccc1OCC(O)COC(N)=O (stereo not given)
#50 CCCn1ncc(CN2CCCC(C(=O)c3cccc(OC(C)C)c3)C2)c1C (stereo not given)

entry no. | 41 | 42 | 43 | 44 | 45 | 46 | 47 | 48 | 49 | 50
Sfp inh | x | -3% | 1% | -21%&-15%&-12%&-29% | x | u | 24% | 8%&19%&-24% | 13%&34% | -8%
PINK1 modulator | 0.7% | -0.6%&-0.5% | -1.0% | 0.0%&5.7% | 3.1% | 2.5% | 0.2% | -0.4% | 0.8% | 0.2%
TRPML1 ag | 0.7 | 7.8&20 | -0.5 | 0.1 | -0.6 | 0.5 | 0.3 | 0.0 | -0.1 | -0.6
TRPML1 inh | 3 | -6&1 | 2 | -5 | 6 | x | x | 20 | 0 | -4
TRPV1 PAM | x | 3 | -2 | 19 | 1 | x | x | -3 | -20 | -3
ClpP mod | -17% | -2.3%&1.0% | 2.4% | -2.9% | 0.6% | 2.8% | 0.6% | -1.1% | -0.9% | -10%
Menin MLL FP FL | x | 0.2 | 3.2[24.8 µM] | 0.6&-1.5&-3.1 | x | u | 7.8 | 0.9&-1.9&-21 | -3.3&0.0 | -1.5
